Assay outcomes: PubChem, several laboratories
Calb FLC: C. albicans growth modulation with fluconazole; 300,000 compounds, 0.57% hits; AID 1979; C. albicans CaCi-2 (fluconazole-resistant clinical isolate) + fluconazole, Alamar Blue growth, 48 h; growth inhibition, % (no concentration beside the values);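 active = most replicates above 75%; inconclusive = exactly half above 75%; inactive = most below 75%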;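 also: all wells also contain fluconazole at 8 µg/ml as a sub-toxic cotreatment; 0% = median of DMSO wells and 100% = median of geldanamycin control wells; wells of about 8 µL received 7.5 nL stock; the first replicate is given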
T cruzi repl: T. cruzi replication inhibition; T. cruzi beta-gal in NIH3T3, luminescence, 90 h; inhibition, % (test concentration not listed); 300,000 compounds, 1.4% hits; AID 1885;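 active = mean inhibition across valid replicates above about 55%, limit read from the data; inconclusive = mean below that limit but half or more replicates reach it; inactive = mean below it, under half of replicates reach it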;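 also: signal also drops with host cell toxicity which is not excluded here; 0% = plate median of DMSO wells and 100% = zero luminescence signal; higher percent means less beta-gal luminescence so fewer parasites; stock transfer was 50 nL into about 50 µL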
Beta2AR agonist: agonists of human beta-2 adrenergic receptor inducing internalization; AID 504454; Am2.2-beta2AR cells, FAP receptor internalization, flow cytometry; reference of the scale not given here; 340,000 compounds, 0.43% hits; response, % (concentration not given with the values);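 active = response above a set limit, near 3 SD of response in nonfluorescent compounds, cut at about 42% in these data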;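 also: stock transfer was 100 nL into about 11 µL; a reference agonist was the positive control; negative values mostly stem from fluorescent compounds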
Target sequence (P07550 whole entry, looked up): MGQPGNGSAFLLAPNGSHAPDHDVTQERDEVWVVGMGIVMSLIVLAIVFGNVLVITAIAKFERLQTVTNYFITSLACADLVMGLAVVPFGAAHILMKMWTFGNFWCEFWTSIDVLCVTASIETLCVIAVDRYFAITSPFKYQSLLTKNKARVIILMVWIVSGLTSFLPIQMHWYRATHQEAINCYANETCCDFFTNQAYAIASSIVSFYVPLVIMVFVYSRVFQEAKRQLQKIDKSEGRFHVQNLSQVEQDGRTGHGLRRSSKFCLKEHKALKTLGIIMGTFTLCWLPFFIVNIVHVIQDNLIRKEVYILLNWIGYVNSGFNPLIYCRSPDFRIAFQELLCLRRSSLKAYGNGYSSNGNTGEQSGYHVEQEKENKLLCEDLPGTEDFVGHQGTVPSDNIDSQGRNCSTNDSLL
A1 inh: inhibitors of the anti-apoptotic protein A1, read as caspase activation | 330,000 compounds, 0.066% hits | AID 2462 | MEF A1-2A-BIM cells, Caspase-Glo 3/7 luminescence, 3 h; percent of clofoctol response, vehicle zero | caspase activation, % (no concentration beside the values);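 active = over half of replicate activation scores above 10%, or exactly half above 10 with the replicate mean above 10; inconclusive = replicate mean below 10 yet half the replicates above 10; inactive = over half of replicates below 10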;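 also: wells of about 30 µL received 50 nL stock; many hits fall short of the cut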
LANA-H2B inh: blocks KSHV LANA binding to histone H2A/H2B; cell-free LANA-H2A/H2B peptide, fluorescence polarization; 320,000 compounds, 0.6% hits; inhibition, % (test concentration not listed); in the data active = inhibition mostly above about 10%, no sharp cut-off; inactive = mostly below about 6.7%;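 also: stock transfer was 7.5 nL into about 10 µL; 0% = median of vehicle wells and 100% = median of positive control wells; one replicate is shown; the record names a cut of 25% in any replicate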
ALR inh: blocks human ALR sulfhydryl oxidase activity; P55789; purified ALR, DTT oxidation, H2O2 HRP-luminol luminescence; inhibition, % (no concentration beside the values); 290,000 compounds, 3.8% hits;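 active = mean and each replicate at 75% or more; inconclusive = only one of the two met; inactive = neither met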;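 also: stock transfer was 7.5 nL into about 7.5 µL; 0% = neutral wells and 100% = wells with inactivated enzyme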
Target sequence (P55789 whole entry, looked up): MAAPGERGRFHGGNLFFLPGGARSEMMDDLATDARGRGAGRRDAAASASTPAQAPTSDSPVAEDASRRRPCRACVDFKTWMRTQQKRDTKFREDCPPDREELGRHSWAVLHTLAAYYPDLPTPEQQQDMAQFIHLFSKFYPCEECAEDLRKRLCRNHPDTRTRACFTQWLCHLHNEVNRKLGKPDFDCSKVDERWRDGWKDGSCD
Beta cell apopt: blocks beta cell apoptosis; INS-1E cytokine-induced death, ATP luminescence, 48 h; percent of positive-control rescue, neutral wells zero; protection from apoptosis, % (concentration not given with the values); 300,000 compounds, 0.8% hits; AID 435005;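 active = all replicates at 75% or more, or half of them and the mean; inconclusive = half reach 75% but not the mean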;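 also: 0% = cytokine-treated negative control wells and 100% = positive control rescue; higher means more ATP so stronger rescue from cytokine killing; wells of about 40 µL received 100 nL stock; the first replicate is given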
Ecoli rRNA inh: selective bacterial rRNA inhibition in E. coli; GFP signal change (wild-type ribosome), % (concentration not given with the values); 350,000 compounds, 1.6% hits; E. coli WT GFP vs humanized-ribosome RFP mutants, fluorescence, 24 h; hits give low values; DMSO median 0, no signal -100;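 active = significant combined selectivity score with lowered wild-type GFP, culture density cut under 30%, mutant RFP and density less affected; inactive = any of these conditions unmet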; also: one replicate is shown; some compounds called inactive have numbers as strong as hits
Ecoli rRNA inh OD600: further read-out of Ecoli rRNA inh, marked with its call; OD600 change, %; measured here: OD600 growth;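 optical density of the mix in the first replicate; 0 = DMSO median and -100 = no signal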
Ecoli rRNA inh RFP: recorded beside Ecoli rRNA inh, whose call it bears; RFP signal change, %; measured here: RFP humanized mutant strains;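 first replicate; 0 = DMSO median and -100 = no signal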
* hit, by the source's call; ? = inconclusive; nt = not tested or not shown; & = joins results of further samples. Some of the compounds tested, so the mix of outcomes need not match the whole.

compound	Calb FLC	T cruzi repl	Beta2AR agonist	A1 inh	LANA-H2B inh	ALR inh	Beta cell apopt	Ecoli rRNA inh	Ecoli rRNA inh OD600	Ecoli rRNA inh RFP
COc1ccc(NC(=O)CN2CC(C)OC(C)C2)cc1Cl (centres undefined)	-4	-10	2	1.4	0.1	-27	3	18	7	2.1
CN(C)C(=O)C[n+]1ccc(C(N)=O)cc1	?	11	-2	0.3	-2.2	3	-4	10	15	-1.4
O=S(=O)(Nc1cccc(-n2cnnn2)c1)c1cc(Br)ccc1Br	54	-25	5	-0.5	2.6	1	11	-44	-47	-9.7
COC(=O)CC1=NN(c2ccccc2)C(=O)C1	-5	-12	-4	0.1	-4.4	-236	-2	14	20	-2.3
COc1ccc(N2CCN(CC(=O)Nc3ccc(C)cc3)CC2)cc1	4	-2	12	0.1	-1.8	90*	nt	-7	-4	0.4
COc1ccc(CCNC(=O)C2CCN(S(=O)(=O)c3ccc(OC)c(OC)c3)CC2)cc1OC	-1	-3	-2	0.7	-2.5	-1	2	-2	-3	0.8
Cn1c(=O)c2c(ncn2CC(=O)Nc2cc(S(=O)(=O)N3CCCCC3)ccc2Cl)n(C)c1=O	nt	nt	3	-0.2	0.0	-2	4	18	24	1.4
Clc1nccnc1-c1ccccc1	-8	10	3	0.4	3.2	-4	3	nt	nt	nt
Cc1cc2ccccc2n1CCNCc1c(C(=O)N2CCOCC2)nc2ccccn12	-5	17	4	-0.7	-1.2	-1	-1	29	14	-0.1
O=C(N/N=C/c1ccco1)C1CCCC1	-4	-2	-18	0.6	3.5	1	1	nt	nt	nt
CC(=O)Oc1cc2c(C(=O)NCCN3CCOCC3)c(C)oc2c2ccccc12	2	3	12	-0.5	nt	nt	-11	nt	nt	nt
COC(=O)c1ccccc1NC(=O)C(C)Oc1ccccc1 (centres undefined)	nt	nt	-5	0.3	-3.6	-1	1	nt	nt	nt
CCCOC(=O)CC1C(=O)NCCN1Cc1ccc(F)cc1 (centres undefined)	2	-12	7	0.4	0.2	nt	-6	2	1	2.0
COc1cc([N+](=O)[O-])cc(/C=N/NC(=O)CSc2nnc(-c3ccccc3)n2C)c1O	-16	2	nt	1.5	3.3	-3	-12	nt	nt	nt
O=C(NCc1cccc(C(F)(F)F)c1)N1CCN(S(=O)(=O)c2ccccc2F)CC1	8	-1	-12	0.3	-2.2	-16	-6	-1	-2	-2.5
CCOc1ccc(/C=N/NC2=NCCCCC2)cc1	-10	-2	-9	0.5	1.6	-1	-6	6	3	-1.3
COc1ccccc1N(C)S(=O)(=O)c1ccc(C(=O)Nc2ccc3nc(C)sc3c2)cc1	29	16	2	-0.3	-5.3	-2	-9	nt	nt	nt
O=C(COc1cccc(Cl)c1Cl)NC1CC1	nt	nt	2	-2.0	1.3	nt	-3	-3	-10	-1.7
N#CC1=C(N)OC2=C(C(=O)CCC2)C1c1cc2c(cc1Br)OCO2 (centres undefined)	1	3	3	0.1	1.6	-10	-2	3	9	-0.4
Cc1ccc(C(=O)OCC(=O)Nc2ccc3c(c2)OCO3)c(O)c1	nt	nt	-6	0.0	2.6	-2	5	2	4	-1.2
Cc1nc2ccccc2c(=O)n1/N=C/c1cccnc1	6	-7	2	0.7	2.3	nt	-9	nt	nt	nt
CN(CCCC(=O)NCc1ccccc1)S(=O)(=O)c1ccc([N+](=O)[O-])cc1	-4	40	12	0.3	-0.6	16	nt	24	13	2.4
CCc1ccccc1N(CC(=O)NC1CCCC1)C(=O)CNC(=O)c1cccs1	-4	-1	-7	0.7	0.5	nt	-1	2	-12	0.7
Cc1cc(C)c(C(=O)N2CCCC(N3CCN(c4cccc(C(F)(F)F)c4)CC3)C2)o1 (centres undefined)	-21	?	5	0.0	0.2	3	10	-51	-75	-8.3
NC(=O)C1CCCN(S(=O)(=O)c2ccc(Br)cc2)C1 (centres undefined)	-2	-8	3	0.0	3.1	1	-5	nt	nt	nt
CC(=O)Nc1cccc(C(=O)Nc2ccccc2C(=O)O)c1	-6	-6	-7	-5.1	0.5	0	-7	nt	nt	nt
Cc1ccc(NC(=O)Cc2nnc(SCC(=O)NC3CCCC3)n2C)c(C)c1	1	4	-4	-0.1	2.5	-8	-4	2	8	-0.2
COc1ccc(/C(C)=N/NC(=O)CNC(=O)c2ccncc2)c(OC)c1	-23	-17	3	0.0	2.5	7	-7	4	6	-2.2
CSC(=Nc1ccccc1)C(C#N)c1nc2ccccc2[nH]1 (centres undefined)	1	-2	-5	0.3	-3.7	nt	nt	-14	-7	-0.4
COc1cc(C(=O)OC(C)C(=O)N2CCc3ccccc3C2)ccc1OCC(=O)N1CCOCC1 (centres undefined)	3	7	-6	2.1	7.2	1	-1	nt	nt	nt
Cc1ccc(C(=O)N2CCc3ccccc32)cc1[N+](=O)[O-]	0	5	-5	-0.6	0.6	-5	-4	4	6	0.0
CC(=O)NC(Cc1cccc(C)c1)C(=O)NC1CCN(C(=O)NCc2ccccc2)CC1 (centres undefined)	-11	2	-5	nt	nt	nt	nt	7	7	0.4
CC1CCCN(C(=O)c2ccc(NS(=O)(=O)c3cccc([N+](=O)[O-])c3)cc2)C1 (centres undefined)	1	2	-3	0.3	2.1	-9	0	5	3	0.4
CCOc1ccc(NC(=O)c2ccc3c(SCC(=O)O)c4c(nc3c2)CCCC4)cc1	-5	10	-6	-0.3	13	16	nt	10	8	-0.4
COc1ccccc1C(=O)CSc1nnc(-c2ccco2)o1	9	14	-26	0.1	1.3	19	-5	-28	-37	-2.4
CN(C)S(=O)(=O)c1ccc(C(=O)OCCCN=C2NS(=O)(=O)c3ccccc32)cc1	2	-9	2	-1.0	-6.1	51	nt	1	-4	-2.6
CN(CC1CCCO1)S(=O)(=O)c1ccc(C(=O)Nc2ccc(F)cc2)cc1 (centres undefined)	4	0	0	0.4	-4.5	-20	6	-13	-9	-2.1
O=C(NN=Cc1ccc(N2CCOCC2)cc1)c1cc2ccccc2cc1O	nt	nt	8	-0.7	-1.9	12	4	10	13	-1.5
CCN1C(=O)/C(=C/C=C2\C=CN(CC)c3ccccc32)SC1=S	-6	8	15	-1.0	0.0	9	-1	nt	nt	nt
CC(C)(C)Cn1c(=O)[nH]c(=O)c2cc([N+](=O)[O-])cnc21	35	33	-1	0.2	0.3	1	3	nt	nt	nt
N#CC1=C(N)Oc2n[nH]c(-c3cccs3)c2C1c1ccoc1 (centres undefined)	5	-14	13	1.2	2.2	20	-3	nt	nt	nt
C[C@H](CO)N1C[C@H](C)[C@@H](CN(C)S(=O)(=O)c2cccs2)Oc2c(NC(=O)Nc3ccc4c(c3)OCO4)cccc2C1=O	nt	nt	13	1.2	-5.1	-7	1	-3&-6	1&-4	-1.2&8.2
Cc1cccc(NC(=O)NN2CCN(C)CC2)c1C	?	22	-10	0.4	2.9	-18	-4	5	16	-1.0
Oc1cc(-c2ccncc2)cc2cccnc12	nt	nt	-4	1.1	10	6	46	-44	-67	-32
O=C(COc1ccccc1Cl)OCC(=O)N1CCN(S(=O)(=O)c2ccccc2)CC1	5	-7	1	0.7	-8.4	-19	-4	nt	nt	nt
CCc1ccc(-c2nc(CSCC(=O)N3CCN(c4ccccn4)CC3)c(C)o2)cc1	-3	3	-2	1.3	4.6	85*	-2	nt	nt	nt
COc1ccc(CCNc2ccc(C(CC(N)=O)NC(=O)c3cc(C)cc(C)c3)cc2[N+](=O)[O-])cc1 (centres undefined)	-5	-21	-9	1.6	5.5	8	1	2	7	-5.6
NS(=O)(=O)c1ccc(CNC(=O)Cc2ccccc2[N+](=O)[O-])cc1	16	-5	-6	0.8	-1.7	1	-1	18	12	1.4
O=C1CC(SC(=Nc2ccccc2)Nc2ccccc2)C(=O)N1c1ccc(Cl)cc1 (centres undefined)	1	13	4	-0.4	0.9	0	3	nt	nt	nt
CCOc1ccc(N2CC(=O)Nc3ccccc3NCC2=O)cc1	-1	49	-13	0.6	1.7	nt	4	nt	nt	nt

The results go on.
compound	Calb FLC	T cruzi repl	Beta2AR agonist	A1 inh	LANA-H2B inh	ALR inh	Beta cell apopt	Ecoli rRNA inh	Ecoli rRNA inh OD600	Ecoli rRNA inh RFP
CC(C)OC(=O)c1cc2c(ccn2-c2ccc(F)cc2)n1CC(=O)N1CCN(C(=O)c2ccco2)CC1	10	17	12	0.4	3.1	-1	4	1	-3	-8.6
Cc1cc(=O)n2nc(N3CCCC3C(=O)NCc3ccccn3)sc2n1 (centres undefined)	-11	-24	-1	0.8	-5.5	-6	-3	nt	nt	nt
O=C(Nc1ccc(N2CCOCC2)cc1)c1cc2ccccc2o1	2	-3	1	-8.1	2.7	-18	-1	nt	nt	nt
O=C(COC(=O)c1nc(-c2ccccc2)n(-c2cccc(C(F)(F)F)c2)n1)NCc1cccs1	4	3	12	-1.0	0.7	-12	-15	4	-3	-6.3
C#CCOCCOCCOCCNc1nc(N2CCN(C(=O)Cn3cc(CCCN=C(N)N)nn3)CC2)nc(N2CCN(C(=O)[C@H]([C@@H](C)O)n3cc(CCCCN)nn3)CC2)n1	nt	nt	-1	1.1	-2.5	nt	1	3	2	-5.6
COC(=O)c1c(SCC(=O)Nc2ccc(C)cc2)nc(=O)[nH]c1C	-4	-18	4	-1.0	-1.5	53	-3	9	17	3.0
COC(=O)c1ccc(N2C(=O)CC(NCc3ccccc3)C2=O)cc1 (centres undefined)	-6	-6	5	0.2	-3.3	4	-1	nt	nt	nt
COc1c(C)cc(C(=O)C2CCCN(C(=O)c3cc(C)on3)C2)cc1C (centres undefined)	-2	-15	9	1.2	-1.7	2	2	-11	-13	0.4
O=C(CSc1ccc(Br)cc1)N1CCOCC1	0	-19	-7	0.2	-2.4	1	-5	7	4	-0.8
Cc1cc(=O)[nH]c(N2CCOCC2)n1	6	-6	-4	-0.7	2.6	-9	0	10	9	1.1
COC(=O)Nc1c(C)nn(Cc2ccccc2C)c1C	23	0	-5	0.0	-0.1	1	1	10	5	-4.4
COc1ccc(N2CCN(C(=S)Nc3ccccc3OC)CC2)cc1	-2	-15	7	0.2	0.4	4	-12	-6	2	-2.0
CS(=O)(=O)N(CC(=O)NCCSc1ccccc1)c1ccc2c(c1)OCO2	-3	-9	-5	-1.5	2.2	3	0	2	-2	-0.3
O=C(NC12CC3CC(CC(C3)C1)C2)N(Cc1ccccc1)Cc1ccncc1	-26	52	-5	-0.3	-9.7	nt	-3	-4	-6	-3.2
CCOC(=O)/C(C#N)=C/c1cn(CCC(=O)O)nc1-c1ccc(Cl)cc1	1	-2	-5	-0.3	-4.5	13	nt	4	-1	2.9
Cc1ccc(NC(=O)CN(C)S(=O)(=O)c2ccc(Cl)s2)c(O)c1	nt	nt	3	0.2	-5.6	-1	-1	2	3	-2.9
O=C(C1CCC(CNc2c(N3CCCCC3)c(=O)c2=O)CC1)N1CCc2ccccc2C1 (centres undefined)	23	11	1	nt	nt	nt	nt	-16	-13	-0.6
